Yeast UUG start: modulators of yeast start codon fidelity, primary screen, whole organism, S. cerevisiae, single point, plate reader; S. cerevisiae UUG-firefly luciferase reporter, luminescence/redox ratio; activity score, % at 18.7 µM; 0.13% of 350,000 active; AID 602363, 2012;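 active = replicate mean at a twofold rise or more, about +100% in these data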;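 note: firefly luciferase made from a UUG start codon reports start codon fidelity; reporter light over untreated wells divided by growth signal over untreated wells; some hits fall short of that in this replicate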
CSC inhib: cancer stem cell viability inhibitors, primary screen, luminescence; cancer stem cell-like cells viability; 1.1% of 300,000 active; inhibition, % at 7.5 µM; AID 2717, 2010;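 active = mean at 75% or more and at least half the replicates too; inconclusive = mean and replicates disagree; tested in HMLE shEcad cells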;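 note: 0% = median of negative and 100% = median of positive control wells; the first replicate is given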
MT1-MMP act inh: blockers of MT1-MMP proenzyme processing, primary screen, HT1080 RFP-PRO-GFP cells, GFP/RFP fluorescence; GFP/RFP ratio change, % at 20 µM; GFP/RFP ratio fluorescence, overnight; percent of plate control window, DMSO zero; 0.061% of 360,000 active; Matrix metalloproteinase-14 (Homo sapiens), P50281;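 active = GFP/RFP ratio change of at least 30% with cell ATP level not reduced by more than half and red fluorescence within 50% of control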; note: strong numbers were not always called active
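Assay system: HT1080 cells carrying an RFP-PRO-GFP reporter | Dosing: Single dose of 20 µM compound, 1% DMSO final | Incubation: Cells overnight before dosing, compound overnight, 37 °C, 5% CO2 | Evaluation: GFP/RFP fluorescence ratio | Control set: DMSO and RFP-L50D-GFP cell wells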
Env fusion inh: inhibitors of HIV-1 Env-driven cell-cell fusion, primary screen, HeLa-JRFL effector, CEM21 target cells, luciferase; 1.1% of 360,000 active; AID 651610, 2012; inhibition, % at 12.3 µM;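 active = mean replicate inhibition score of at least 50 and every replicate individually at or above 50; inconclusive = only one of the two criteria met; inactive = mean below 50 and not all replicates reaching 50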;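 note: 0% = plate neutral controls and 100% = maraviroc near 300 nM; one replicate is shown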
Rce1 inh: yeast Rce1p protease inhibitors, primary screen, biochemical, fluorescence, cell-free homogeneous | CAAX prenyl protease 2 (Saccharomyces cerevisiae (strain ATCC 204508 / S288c)), Q03530 | yeast membranes, quenched prenylated peptide cleavage fluorescence | calls only | 0.27% of 290,000 active | AID 2563, 2010;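 active = fall in fluorescence gain of 50% or more versus controls, with final raw signal at or below 3038400; inconclusive = same 50% fall but final raw signal above 3038400; inactive = fall in fluorescence gain under 50%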;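 note: plate controls were neutral control wells for no effect and wells lacking membranes for full effect; tested at 10 µM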
Target sequence (Q03530 whole entry, looked up): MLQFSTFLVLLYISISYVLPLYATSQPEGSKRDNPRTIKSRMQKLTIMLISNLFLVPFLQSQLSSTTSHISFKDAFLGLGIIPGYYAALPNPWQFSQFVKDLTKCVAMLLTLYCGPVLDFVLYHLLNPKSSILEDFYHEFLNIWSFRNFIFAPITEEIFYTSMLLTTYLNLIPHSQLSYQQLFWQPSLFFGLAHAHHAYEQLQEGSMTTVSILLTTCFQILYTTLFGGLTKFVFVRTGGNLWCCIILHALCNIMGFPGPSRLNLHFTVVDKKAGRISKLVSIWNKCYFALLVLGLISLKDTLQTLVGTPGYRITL
PABP polyA inh: PABP poly(A) RNA binding inhibitors, primary screen, biochemical, fluorescence polarization, uHTS | inhibition, % at 35 µM | 1% of 290,000 active;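 active = 50% or more with normal probe brightness, or confirmed in later tests; inconclusive = above 50% with abnormal brightness, or retests that disagree; inactive = below 50% or failed in later tests; about a fifth of its hits are not listed in these tables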;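 note: calls also rest on retests at 20 µM and on dose response follow-up; controls were probe without protein and protein plus probe with vehicle; some compounds called inactive have numbers as strong as hits; many hits fall short of the cut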
Target sequence (P11940 whole entry, looked up): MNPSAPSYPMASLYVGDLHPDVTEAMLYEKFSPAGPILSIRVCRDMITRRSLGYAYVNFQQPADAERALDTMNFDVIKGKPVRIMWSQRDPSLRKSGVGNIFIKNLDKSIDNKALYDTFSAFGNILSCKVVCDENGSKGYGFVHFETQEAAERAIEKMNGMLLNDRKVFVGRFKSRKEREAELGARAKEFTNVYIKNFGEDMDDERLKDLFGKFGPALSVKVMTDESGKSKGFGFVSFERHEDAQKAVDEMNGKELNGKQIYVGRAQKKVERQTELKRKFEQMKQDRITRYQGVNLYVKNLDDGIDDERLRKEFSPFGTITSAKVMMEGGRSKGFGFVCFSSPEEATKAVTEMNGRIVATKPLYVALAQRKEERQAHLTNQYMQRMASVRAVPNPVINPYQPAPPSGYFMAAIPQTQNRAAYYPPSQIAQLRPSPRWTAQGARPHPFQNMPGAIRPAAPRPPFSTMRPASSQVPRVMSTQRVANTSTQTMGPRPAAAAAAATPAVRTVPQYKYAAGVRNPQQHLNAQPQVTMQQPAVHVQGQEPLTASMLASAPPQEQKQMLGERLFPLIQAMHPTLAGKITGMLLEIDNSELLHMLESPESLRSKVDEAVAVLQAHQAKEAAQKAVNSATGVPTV
eIF4H FP inh: human eIF4H binding inhibitors, primary screen, translation initiation inhibitor project, biochemical, uHTS, fluorescence polarization | inhibition, % at 35 µM | AID 2012, 2009 | 0.94% of 290,000 active | eIF4H fluorescence polarization binding assay | Eukaryotic translation initiation factor 4H (Homo sapiens), Q15056;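 active = 50% or more with normal probe brightness, or confirmed in later tests; inconclusive = above 50% with abnormal brightness, or retests that disagree; inactive = below 50% or failed in later tests; about a fifth of its hits are not listed in these tables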;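 note: calls also rest on retests at 20 µM and on dose response follow-up; 0% = protein and probe with vehicle and 100% = probe without protein; strong numbers were not always called active; many hits fall short of the cut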
PABP polyA inh retest: further read-out of PABP polyA inh, marked with its call; inhibition, %; compound at 20 µM; confirmation repeats;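 mean of two retest wells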
MT1-MMP act inh RFP: also measured in MT1-MMP act inh; calls as there; RFP signal change, %; measured here: RFP expression control read;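 0 = vehicle wells; hits needed this value within 50% of zero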
* marks the source's active call; other numbers are inactive results; i = inactive; ? = inconclusive; · = not tested or not shown.

The first 4 entries as a preview:
SMILES	Yeast UUG start	CSC inhib	MT1-MMP act inh	MT1-MMP act inh RFP	Env fusion inh	Rce1 inh	PABP polyA inh	eIF4H FP inh	others
CCN(CC)C(=O)C1CCCN(c2ccc([N+](=O)[O-])cc2/C=N/NC(=O)c2cccc(Br)c2)C1 (stereo unspecified)	6	-4	-1	-22	-31	i	-3	-11
Cc1ccc(S(=O)(=O)N2CCCC(C(=O)NCc3ccccn3)C2)cc1 (stereo unspecified)	-23	-6	-1	-2	14	i	0	-14
C=CCn1c(Cc2nc3ccccc3[nH]2)n[nH]c1=S	-30	2	-2	1	-23	i	0	-2
Cc1cccc(N(C(=O)c2snc(C(N)=O)c2N)C(C(=O)NCC2CCCO2)c2ccc3ncccc3c2)c1 (stereo unspecified)	3	8	-3	-5	8	·	11	-16

All compounds of this part, from the first entry:
SMILES	Yeast UUG start	CSC inhib	MT1-MMP act inh	MT1-MMP act inh RFP	Env fusion inh	Rce1 inh	PABP polyA inh	eIF4H FP inh	others
CCN(CC)C(=O)C1CCCN(c2ccc([N+](=O)[O-])cc2/C=N/NC(=O)c2cccc(Br)c2)C1 (stereo unspecified)	6	-4	-1	-22	-31	i	-3	-11
Cc1ccc(S(=O)(=O)N2CCCC(C(=O)NCc3ccccn3)C2)cc1 (stereo unspecified)	-23	-6	-1	-2	14	i	0	-14
C=CCn1c(Cc2nc3ccccc3[nH]2)n[nH]c1=S	-30	2	-2	1	-23	i	0	-2
Cc1cccc(N(C(=O)c2snc(C(N)=O)c2N)C(C(=O)NCC2CCCO2)c2ccc3ncccc3c2)c1 (stereo unspecified)	3	8	-3	-5	8	·	11	-16
CC1(C)CC(=O)C2=C(C1)N(c1ccc(F)cc1)C(=O)NC2(C(F)(F)F)C(F)(F)F	-6	-11	-5	-25	·	i	-4	-12
Cc1nc2nc[nH]n2c(=O)c1NC(=O)CCc1ccccc1	-10	4	3	3	·	i	12	-1
COc1ccc(C/C(N)=N/OC(C)=O)cc1OC	·	-13	4	3	-14	i	1	0
COc1ccc(NC(=O)CSCC(=O)Nc2ccc(S(=O)(=O)N3CCCCC3)cc2)cc1	-23	1	1	1	·	i	6	1
Cc1ccc2[nH]c(C(F)(F)F)cc(=O)c2c1	·	9	8	-18	-35	i	-3	1
O=C1/C(=C/c2ccc(O)c([N+](=O)[O-])c2)SC(=S)N1Cc1ccccc1	-18	·	-28	-23	25	i	76	?	PABP polyA inh retest=25

Two compounds drawn at random from those above, as already listed:
SMILES	Yeast UUG start	CSC inhib	MT1-MMP act inh	MT1-MMP act inh RFP	Env fusion inh	Rce1 inh	PABP polyA inh	eIF4H FP inh	others
CC1(C)CC(=O)C2=C(C1)N(c1ccc(F)cc1)C(=O)NC2(C(F)(F)F)C(F)(F)F	-6	-11	-5	-25	·	i	-4	-12
CCN(CC)C(=O)C1CCCN(c2ccc([N+](=O)[O-])cc2/C=N/NC(=O)c2cccc(Br)c2)C1 (stereo unspecified)	6	-4	-1	-22	-31	i	-3	-11

The list goes on:
SMILES	Yeast UUG start	CSC inhib	MT1-MMP act inh	MT1-MMP act inh RFP	Env fusion inh	Rce1 inh	PABP polyA inh	eIF4H FP inh	others
Oc1cccc(/C=N/Nc2nn3cnnc3c3ccccc23)c1	-21	9	6	2	5	i	-10	4
O=C(Nc1nnc(CCS(=O)(=O)c2ccc3ccccc3c2)s1)c1ccc([N+](=O)[O-])cc1	·	-11	8	3	6	i	-4	-14
O=c1c2c3nc4ccccc4nc3n(CC3CCCO3)c2ncn1CCc1ccccc1 (stereo unspecified)	-9	2	-2	-1	·	i	8	9
CC(=O)OC1(C(F)(F)F)Oc2ccccc2NC1=O (stereo unspecified)	-5	-7	-6	-2	-17	i	-4	-13
O=c1cc[nH]c2c(C(F)(F)F)cccc12	-4	-9	-7	-2	·	i	-6	3
COc1cccc(NC(=O)N2CCC(NC(=O)C(Cc3ccccc3OC)NC(C)=O)CC2)c1 (stereo unspecified)	3	·	3	4	18	i	7	31
N#C/C(=N\Nc1ccccc1F)C(=N)N1CCCCC1	-10	-5	6	-1	-219	i	2	-1
CC(C)(C)NC(=O)C(c1ccco1)N(C(=O)Cn1nnc(-c2ccc(F)cc2)n1)c1ccccc1F (stereo unspecified)	1	18	0	-3	24	i	28	-10
O=C(CSc1ccc(-c2ccccn2)nn1)Nc1nccs1	·	·	7	4	-26	i	6	-6
CS(=O)(=O)N(CC(=O)Nc1cccc(Br)c1)Cc1ccccc1	-9	·	-5	-7	8	i	20	6

No new results follow: entries from further up.
SMILES	Yeast UUG start	CSC inhib	MT1-MMP act inh	MT1-MMP act inh RFP	Env fusion inh	Rce1 inh	PABP polyA inh	eIF4H FP inh	others
Oc1cccc(/C=N/Nc2nn3cnnc3c3ccccc23)c1	-21	9	6	2	5	i	-10	4
O=C(Nc1nnc(CCS(=O)(=O)c2ccc3ccccc3c2)s1)c1ccc([N+](=O)[O-])cc1	·	-11	8	3	6	i	-4	-14
O=c1c2c3nc4ccccc4nc3n(CC3CCCO3)c2ncn1CCc1ccccc1 (stereo unspecified)	-9	2	-2	-1	·	i	8	9
CC(=O)OC1(C(F)(F)F)Oc2ccccc2NC1=O (stereo unspecified)	-5	-7	-6	-2	-17	i	-4	-13

(list continues)
SMILES	Yeast UUG start	CSC inhib	MT1-MMP act inh	MT1-MMP act inh RFP	Env fusion inh	Rce1 inh	PABP polyA inh	eIF4H FP inh	others
Cc1ccc(/C=N/NC(=O)C(O)c2ccccc2)o1 (stereo unspecified)	-3	-11	3	2	0	i	1	3
CSc1nc(N)nc2c1ncn2CC(=O)N1CCN(Cc2c(C)cc(C)cc2C)CC1	-6	·	1	-21	39	·	·	·
CCc1nc2oc3cc(OC)ccc3c(=O)c2c(=O)n1Cc1ccccc1	·	-4	2	-6	·	i	-10	0
CCN(C(=O)COC(=O)c1ccc2c(=O)n3c(nc2c1)CCC3)C1CCS(=O)(=O)C1 (stereo unspecified)	·	-8	0	7	7	i	-6	4
C/C(CC(=O)Nc1ccc2c(c1)OCCO2)=N\NC(=O)c1cccc(O)c1	-33	1	4	8	-18	i	6	-5
Cc1ccc(C23CC4CC(CC(C(=O)N5CCOCC5)(C4)C2)C3)cc1	12	0	-2	-8	·	i	-4	-5
O=C(NCc1nc2ccccc2[nH]1)c1cccc(S(=O)(=O)N2CCCCC2)c1	·	-7	2	-6	-11	i	7	6
Cc1ccc(CNC(=O)CCS(=O)(=O)c2ccc3c(c2)NC(=O)C(C)S3)cc1 (stereo unspecified)	-13	-7	-1	-2	-7	i	5	5
CN(c1ccccc1)c1nc(N)c([N+](=O)[O-])c(N2CCCCCC2)n1	0	1	0	-17	3	i	-9	2
CCN1C(=O)Cc2cc(S(=O)(=O)NCCc3ccccc3)ccc21	-7	4	2	4	-2	i	7	8
CC(=O)c1cn(CC(=O)Nc2ccc(C)cc2)c2ccccc12	-12	4	0	-10	·	i	3	7
O=C(NCC(c1ccc(F)cc1)N1CCOCC1)c1ccc(OCc2ccccc2)cc1 (stereo unspecified)	-13	·	0	-4	-16	·	·	·
Cc1ccccc1OCC(O)CN1CCN(c2ccccn2)CC1 (stereo unspecified)	·	18	0	3	-10	i	-4	-19
COc1ccccc1NC(=O)CN1C(=O)CC(C)S(=O)(=O)c2ccccc21 (stereo unspecified)	11	-14	-5	1	-14	i	16	5
Clc1cccc(CSc2nc3ccncc3[nH]2)c1	-18	·	2	-10	-4	i	-4	-2
O=C(CSc1nc(Nc2ccccc2)nc(N2CCOCC2)n1)N1CCCC1	1	1	-4	0	·	i	7	16
CCN(C[C@H]1N[C@@](C)(C(=O)OC)[C@H]2C(=O)N(Cc3ccccc3)C(=O)[C@@H]12)C(=O)c1ccc(C(C)(C)C)cc1	-7	·	1	4	69*	·	·	·
O=C(Nc1ccc(F)cc1F)c1cc2ccccc2oc1=O	-16	-8	-1	-1	-13	i	-10	4
COc1ccc(C(O)(C(C)C)C(CN2CCOCC2)c2ccc(Cl)cc2)cc1 (stereo unspecified)	-5	6	-4	-7	41	i	-3	4
C#CC[N+](C)(C)C(C#Cc1ccccc1)CC=C (stereo unspecified)	-8	-8	2	7	·	i	12	-6
C=CCC(CC=C)(NC(=O)c1cccc(C)c1)c1ccccc1	·	4	1	4	-7	i	28	-4
O=C(Nc1ccc2oc(-c3ccncc3)nc2c1)c1ccc(Br)o1	-9	·	3	1	6	i	-22	-1
Cc1ccc(/C=C2\SC(N3CCCCC3)=NC2=O)cc1	-8	-7	1	-3	-21	i	-5	-10
O=C(Nc1ccccc1N1CCCC1)c1ccc(Br)o1	-26	0	-3	2	-25	i	-1	-4
CN(Cc1ccccc1)C(=O)c1cccc(NC(=O)C2CCCN(C(=O)OC(C)(C)C)C2)c1 (stereo unspecified)	22	-10	6	-6	1	·	·	·
CCc1nnc(NC(=O)CSc2nccn2-c2ccccc2)s1	-27	-7	3	-1	·	i	28	10
O=C(NCCCO)C(=O)NCc1ccncc1	·	10	2	2	-1	i	-10	-10
CCCSc1nc2c(c(=O)[nH]c(=O)n2C)n1Cc1ccccc1	4	-9	2	-5	-17	i	-2	2
Cc1nnsc1S(=O)c1ccc(Br)cc1 (stereo unspecified)	-4	·	-3	-4	-2	i	5	10
CC(=O)Oc1ccc(/C(C)=N/N2CCN(Cc3ccc(C)cc3)CC2)cc1	9	-6	1	1	16	i	10	-9
Cc1sc2ncn(CC(=O)NCCc3ccccc3)c(=O)c2c1C	-15	-6	1	4	-53	i	7	5
COC(=O)c1sc(S(=O)(=O)NCc2cccs2)c(C(=O)OC)c1C	6	-10	2	-2	·	i	-6	-9
O=C(COC(=O)c1ccccc1NS(=O)(=O)c1cccs1)NCC12CC3CC(CC(C3)C1)C2	-2	2	-1	1	8	i	-14	-8
COc1ccc(N2CCN(CCC3Oc4cc([N+](=O)[O-])ccc4NC3=O)CC2)cc1 (stereo unspecified)	-19	-2	0	-4	1	i	3	7
COC(=O)c1ccc(NC(=O)c2cccc(NC(=O)c3ccccc3)c2)cc1	-34	-7	7	1	16	i	-16	11
Cc1nc2ccc(S(=O)(=O)NCC(=O)Nc3cccc(F)c3)cc2s1	·	-10	1	-1	-5	i	4	2
CNC(=S)N(CCc1c(C)[nH]c2ccc(C)cc12)Cc1cc(OC)c(OC)c(OC)c1	-16	-11	-1	-4	10	i	6	-9
Cc1nc2ncnn2c(C)c1Cc1c(Cl)cccc1Cl	-16	2	-3	-12	-31	i	-4	-5
Cc1ccc(N2CC(C(=O)NCc3ccc(C)n3C)CC2=O)cc1 (stereo unspecified)	·	8	-1	6	11	i	11	41
CN1C(=O)/C(=C2/C=CC=CN2C)OC1=S	-22	7	2	4	-37	i	-3	-8
COc1ccc(CNC(=O)CN(C)CC(=O)Nc2ccccc2Br)cc1	-36	7	-3	-5	2	·	·	·
CCOC(=O)c1[nH]c(=O)[nH]c1CSCCO	-9	-4	3	-2	·	i	11	-12
COc1ccc(CN2C(=O)c3ccccc3C2C(=O)NC2CCCCCC2)c(OC)c1 (stereo unspecified)	-10	·	0	2	-35	i	-4	-10
Cc1nc(N)[nH]c(=O)c1CCCNc1ccc([N+](=O)[O-])cc1	-14	·	2	-1	-4	·	·	·
CCOc1ccc(NC(=S)NCCN2CCN(Cc3ccccc3)CC2)cc1	-20	-8	1	-2	11	i	-6	4
